A1 inh = caspase 3/7 activation in MEF A1-2A-BIM cells, primary screen, A1 inhibitor project, cell-based, luminescence, HTS; caspase activation, % (no concentration beside the values); Caspase-Glo 3/7 luminescence, 3 h; percent of clofoctol response, vehicle zero; 330,000 compounds, 0.066% hits;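 active = over half of replicate activation scores above 10%, or exactly half above 10 with the replicate mean above 10; inconclusive = replicate mean below 10 yet half the replicates above 10; inactive = over half of replicates below 10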;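 note: wells of about 30 µL received 50 nL stock; many hits fall short of the cut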
E coli growth = E. coli growth inhibition, primary screen, OD600 | OD600 absorbance (no concentration beside the values) | 330,000 compounds, 0.21% hits | AID 1053175, 2014 | Escherichia coli growth, 23 h; hits give low values;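 active = OD600 absorbance below the run mean of sample wells minus 3.6 SD, in any replicate, cut at about 0.56 in these data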;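 note: stock transfer was 300 nL into about 60 µL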
LANA-H2A inh = blockers of LANA interaction with H2A/H2B – biochemical, FP readout, HTS, primary screen; AID 2629, 2010; cell-free LANA-H2A/H2B peptide, fluorescence polarization; inhibition, % (concentration not given with the values); 320,000 compounds, 0.6% hits; Protein LANA1 (Human herpesvirus 8 type P (isolate GK18)), Q9QR71; in the data active = inhibition mostly above about 10%, no sharp cut-off; inactive = mostly below about 6.7%;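 note: stock transfer was 7.5 nL into about 10 µL; 0% = median of vehicle wells and 100% = median of positive control wells; one replicate is shown; the record names a cut of 25% in any replicate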
HNF4A DNA FP = change in binding of human HNF4A to DNA, primary screen, biochemical, fluorescence polarization, FITC-DNA | Hepatocyte nuclear factor 4-alpha (Homo sapiens), P41235 | 1 h | activity change, % at 10 µM | 360,000 compounds, 0.3% hits | AID 1224865, 2016; in the data active = activity change above about 30%, passing the limit was not always enough;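 note: controls were the assay level and a saturating level of protein; the project sought stronger binding though the title names inhibitors; some compounds called inactive have numbers as strong as hits; positive values seem to mean higher polarization but the record does not say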
Target sequence (P41235 whole entry, looked up): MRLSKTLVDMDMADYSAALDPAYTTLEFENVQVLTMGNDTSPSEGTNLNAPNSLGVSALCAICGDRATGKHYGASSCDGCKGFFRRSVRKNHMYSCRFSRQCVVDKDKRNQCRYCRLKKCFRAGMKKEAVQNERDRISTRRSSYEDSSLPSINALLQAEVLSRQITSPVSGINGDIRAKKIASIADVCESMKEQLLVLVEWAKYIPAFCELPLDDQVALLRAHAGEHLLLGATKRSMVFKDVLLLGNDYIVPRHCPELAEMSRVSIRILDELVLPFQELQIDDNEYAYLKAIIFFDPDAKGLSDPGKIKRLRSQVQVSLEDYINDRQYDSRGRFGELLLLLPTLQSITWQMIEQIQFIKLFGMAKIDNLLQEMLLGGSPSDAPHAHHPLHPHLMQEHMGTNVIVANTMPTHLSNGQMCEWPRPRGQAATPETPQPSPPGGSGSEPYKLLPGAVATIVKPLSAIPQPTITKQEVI
Beta2AR agonist = beta2AR agonists driving receptor internalization, primary screen, cell-based, FAP fluorogen, flow cytometry; 340,000 compounds, 0.43% hits; Am2.2-beta2AR cells; reference of the scale not given here; response, % (test concentration not listed); AID 504454, 2011;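 active = response above a set limit, near 3 SD of response in nonfluorescent compounds, cut at about 42% in these data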;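 note: stock transfer was 100 nL into about 11 µL; a reference agonist was the positive control; negative values mostly stem from fluorescent compounds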
Target sequence (P07550 whole entry, looked up): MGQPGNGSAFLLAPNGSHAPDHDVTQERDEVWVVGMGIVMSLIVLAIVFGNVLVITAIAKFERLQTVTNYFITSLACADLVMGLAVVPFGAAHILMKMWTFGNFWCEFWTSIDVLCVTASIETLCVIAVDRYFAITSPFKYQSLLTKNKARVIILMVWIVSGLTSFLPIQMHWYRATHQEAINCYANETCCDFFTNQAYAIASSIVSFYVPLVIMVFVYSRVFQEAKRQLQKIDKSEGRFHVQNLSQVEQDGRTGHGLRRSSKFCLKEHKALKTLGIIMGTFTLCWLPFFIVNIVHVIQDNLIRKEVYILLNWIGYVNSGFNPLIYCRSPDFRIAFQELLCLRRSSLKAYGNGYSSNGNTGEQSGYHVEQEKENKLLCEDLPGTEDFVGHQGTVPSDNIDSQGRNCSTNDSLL
UCH37 DUB inh = inhibitors of human UCH37 deubiquitinase, primary screen, biochemical, Ub-AMC cleavage, fluorescence | Ubiquitin carboxyl-terminal hydrolase isozyme L5 (Homo sapiens), Q9Y5K5 | purified proteasome/UCH37 | inhibition, % (concentration not given with the values) | 330,000 compounds, 0.33% hits | AID 588478, 2011;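 active = mean of two replicates above 20%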;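 note: 0% = compound-free wells with enzyme and 100% = wells lacking proteasome; stock transfer was 100 nL into about 20 µL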
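Material: human UCH37 enzyme supplied as purified proteasome complex. Measure: % inhibition of Ub-AMC cleavage fluorescence. Medium: pH 7.4 Tris-HCl (50 mM) with ovalbumin, ATP-MgCl2, DTT. Times: 30 min preincubation with enzyme, 25 min cleavage at room temperature. Detection: AMC fluorescence intensity at 355/460 nm.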
Vif A3G = inhibitors of Vif binding to APOBEC3G peptide, primary screen, biochemical, TR-FRET, GST-Vif 1-94, biotin-A3G peptide, dose response retest (AID 1117319) | Virion infectivity factor (Human immunodeficiency virus type 1 group M subtype B (isolate … | TR-FRET GST-Vif / biotin-A3G peptide binding; higher % means a stronger effect; test concentration not given here; strong numbers were not always called active | one-dose inhibition, %; IC50 in µM for titrated hits | 260,000 compounds, 0.57% hits;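 active = above the screen mean plus three standard deviations and confirmed in dose response; inconclusive = results disagree or hit not tested in dose response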;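 note: Vif residues 1-94 fused to GST binding biotinylated APOBEC3G peptide 110-148; 0% = full assay without inhibitor and 100% = GST in place of GST-Vif; retest series ran down from 100 µM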
The depositor's hits bear a star; i = inactive; ? = inconclusive; . = no result given; & = joins results of further samples.

Below each compound – A1 inh	E coli growth	LANA-H2A inh	HNF4A DNA FP	Beta2AR agonist	UCH37 DUB inh	Vif A3G
- O=C(Nc1nc(-c2cccs2)cs1)c1ccc(Cl)cc1
 : -0.2	0.686	7.2	3.7	8.8	-7.8	29.7%
- CC1(N2CCCCC2)C(=O)c2ccccc2C1=O
 : -0.5	0.702	5.2	-1.6	-1.5	0.8	2.4%
- O=C(O)CCc1ccc(-c2ccccc2)n1NC(=O)c1ccco1
 : 0.2	0.759	0.4	2.7	6.0	-7.2	4.0%
- COc1ccc(CC(=O)N2CCc3cc(OC)c(OC)cc3C2C)c(OC)c1 (stereo unspecified)
 : -0.1	0.672	2.7	-1.3	2.9	5.3	-7.6%
- O=C(c1ccc(F)c(S(=O)(=O)N2CCOCC2)c1)N(c1ccccc1)c1ccccn1
 : 0.2	0.677	3.5	3.1	4.0	0.8	1.2%
- S=C(NCCc1ccccc1)Nc1ccccc1N1CCOCC1
 : 0.0	0.64	14.8	3.8	2.4	1.3	-5.4%
- CN(C)c1ccc(N=Nc2ccccc2Br)cc1
 : -10.0	0.663	-3.4	3.3	-6.2	3.0	.
- CN1CCN(S(=O)(=O)c2ccc(C(F)(F)F)cc2)C(c2ccccc2)C1 (stereo unspecified)
 : .	0.678	.	-2.6	-4.3	1.4	-3.0%
- COc1ccc(NC(=O)CN2C(=O)C(C)Oc3ccccc32)cc1OC (stereo unspecified)
 : 0.2	0.64	1.1	-1.3	2.1	4.7	.
- COc1cccc(NC(=O)CN(C)C(=O)c2cccc(S(=O)(=O)N3CC4(C)CC3CC(C)(C)C4)c2)c1 (stereo unspecified)
 : -0.6	.	-3.6	1.8	5.9	.	.
- NS(=O)(=O)c1ccc(CCNS(=O)(=O)c2ccccc2)cc1
 : 0.0	0.643	-0.6	-3.1	5.1	2.9	22.8%
- CCOc1ccc(N(C)S(=O)(=O)c2cc(-c3cc(C)no3)ccc2C(C)C)cc1
 : -1.7	0.669	-1.5	1.6	12.0	-0.1	.
- CCOc1ccc(NC(=O)CCNS(=O)(=O)c2cccc3nsnc23)cc1
 : 1.2	0.701	-2.2	3.2	1.5	1.5	-0.2%
- COC(=O)CCC/C=C1/SCC(NC(=O)c2ccccc2)/C1=N/O (stereo unspecified)
 : -0.2	.	5.2	-1.5	0.9	.	-3.7%
- Cc1nc(/N=C\c2ccc(N(C)C)cc2)sc1C
 : -0.5	.	-1.1	11.5	-2.9	.	.
- O=C(CSc1nc(O)cc(=O)[nH]1)N1c2ccccc2CCc2ccccc21
 : 0.4	0.68	0.0	1.3	1.7	4.7	-0.8%
- C=C(C)Cn1c(CCNC(=O)CC)nc2ccccc21
 : -0.1	0.686	0.2	-1.6	4.2	0.1	7.6%
- CC(C)OC(=O)c1cc(NC(=O)c2nn(C)cc2Br)cc(C(=O)OC(C)C)c1
 : 0.6	0.639	0.8	-5.1	-2.4	1.6	-46.0%
- CCOC(=O)c1[nH]c2ccc(F)cc2c1NC(=O)Nc1ccccc1OC
 : 1.9	0.703	1.1	2.6	-1.9	-7.5	-4.3%
- CC(C)Cc1nc2c(nnn2Cc2ccccc2F)c(=O)[nH]1
 : 0.2	0.72	2.7	4.4	-4.1	0.2	.
- COc1ccc(-c2nc(Cn3c(SCc4ccc(C)cc4)nc4ccncc43)c(C)o2)cc1OC
 : 0.7	0.761	-0.8	4.6	5.9	1.2	-26.8%
- CS(=O)(=O)N(CC(=O)NCC1CCCO1)c1cc(Cl)c(Cl)cc1Cl (stereo unspecified)
 : 0.3	0.708	7.1	1.9	1.6	0.6	5.7%
- COCC(C)NC(=O)c1cc2c(ccc3ccccc32)oc1=O (stereo unspecified)
 : -0.8	0.677	0.9	3.6	-9.2	i	1.6%
- O=C1C=C(c2cccs2)C[C@H](c2ccccc2)[C@H]1n1nnc([N+](=O)[O-])n1
 : 0.6	0.714	-2.2	2.1	-11.8	1.0	11.3%
- CC(C)Cn1nc(NC(=O)c2cccs2)c2cc3ccccc3nc21
 : 0.0	0.617	1.9	1.2	-4.2	-74.4	25.0%
- COc1ccc(C(C(=O)NC(C)(C)C)N(CCO)C(=O)CCC(=O)Nc2cc(C)on2)cc1 (stereo unspecified)
 : 3.2	0.639	-1.0	-0.7	-1.6	3.0	.
- Nc1ccc2nc(-c3ccccc3)c(-c3ccccc3)nc2c1
 : -0.6	.	7.2	-35.1	10.2	.	.
- COc1ccc(CCNC(=S)Nc2ccc(C)cc2C)cc1
 : -0.3	0.709	4.7	0.8	-1.4	5.2	-4.7%
- O=S(=O)(c1cccc(-c2cn3cccnc3n2)c1)N1CCOCC1
 : 0.4	0.735	4.1	0.8	-4.9	i	26.1%
- Cn1cc(Br)c(C(=O)NN2C(=O)C3C4C=CC(C5CC45)C3C2=O)n1 (stereo unspecified)
 : 1.1	0.684	0.3	-0.9	1.2	-2.0	-4.0%
- CCCc1ccccc1OCCNS(=O)(=O)c1cc2c(cc1C)OCC(=O)N2
 : 0.1	0.667	-1.7	-5.2	12.9	6.5	.
- Brc1cnc2nc(SCc3nc4ccccc4[nH]3)[nH]c2c1
 : 0.4	0.57	-1.2	-0.3	-4.3	0.7	31.8%
- CCOC(=O)c1c(NC(=O)CN2C(=O)NC(C)(c3ccc(Cl)cc3)C2=O)sc(C(=O)NC)c1C (stereo unspecified)
 : 0.1	0.724	-1.0	1.2	2.2	-1.2	24.7%
- COc1ccc(-c2nnc(N3CCCCC3)c3ccccc23)cc1
 : 0.1	0.728	-4.2	-1.4	0.2	0.3	-2.4%
- Cc1ccccc1Nc1nnc(SCC(=O)c2ccc(O)cc2O)s1
 : -0.9	0.616	6.9	0.8	9.9	6.5	.
- COc1cccc2c(C)nc(Nc3nc(CSc4nnc(C)s4)cc(=O)[nH]3)nc12
 : 0.0	0.7	-0.8	5.9	-7.7	-1.7	0.6%
- Cc1cccc(NC(=O)CSc2nnc(C)n2Cc2ccccc2)c1
 : 0.1	0.688	-0.5	5.1	7.6	3.2	2.9%
- CCOC(=O)c1cc(OC(=O)c2cccnc2)n(-c2ccccc2)n1
 : -0.9	.	3.1	.	.	.	?
- COc1ccc(N2CCN(C(=S)Nc3ccc(F)cc3)CC2)cc1
 : 0.2	0.67	-2.3	3.6	5.6	1.0	.
- COCCCNC(=O)CCn1c(=O)c2ccccc2n(CC(=O)NCCC2=CCCCC2)c1=O
 : 0.4	0.669	3.5	2.7	7.0	5.1	-6.8%
- O=C(NCCCN1CCOCC1)C(=O)NCC1OCCN1S(=O)(=O)c1ccc(Br)cc1 (stereo unspecified)
 : -0.2	0.705	-3.9	-5.3	-2.4	2.4	.
- CCc1ccc(Oc2coc3cc(OCC(=O)Nc4cc(C)ccc4C)ccc3c2=O)cc1
 : 3.2	0.704	-0.5	-2.8	0.7	3.4	.
- Cc1ccc2[nH]c(=O)c(CN(C)C(=O)c3ccccn3)cc2c1
 : -0.1	0.815	1.0	2.4	-12.1	-5.2	-6.2%
- COc1ccc2[nH]c(=O)c(C(c3nnnn3CC3CCCO3)N3CCc4ccccc4C3)cc2c1 (stereo unspecified)
 : 0.0	0.669	-6.5	-3.1	0.5	-56.9	-2.4%&1.9%
- S=c1nc(-c2ccccc2)n(-c2ccccc2)[nH]1
 : 1.4	0.678	2.9	-2.2	3.7	1.2	-13.4%
- Oc1ccccc1C(=S)N1CCCC1
 : 1.6	0.653	-0.3	1.4	1.3	2.3	.
- CCOC(=O)c1c(N)sc(-c2ccccc2)c1C
 : -0.3	0.61	0.1	-1.0	-7.7	2.3	10.2%
- CCOC(=O)C1CCN(S(=O)(=O)c2c(C)[nH]c(C)c2C(=O)N2CCCC2)CC1
 : -1.7	0.674	-1.4	8.4	-2.2	5.2	.
- O=C(CCc1nc(-c2ccc(Cl)cc2)no1)NC1CCCCC1
 : 1.1	0.719	0.7	0.0	2.2	1.1	-7.0%
- S=C1CCSc2ccc(Cl)cc2N1
 : .	.	.	0.4	1.8	.	-11.8%

Carrying on:
Below each compound – A1 inh	E coli growth	LANA-H2A inh	HNF4A DNA FP	Beta2AR agonist	UCH37 DUB inh	Vif A3G
- Cc1ccccc1C(=O)N/N=C/c1ccccn1
 : -0.7	.	-5.4	-0.2	-8.1	.	-8.1%
- O=C(C(=O)N1CCN(c2ccc(F)cc2)CC1)c1c[nH]c2ccccc12
 : 0.1	0.677	0.6	-2.3	-1.6	1.6	-17.3%
- COc1ccccc1C(=O)Nc1ccc(NC(=O)c2ccco2)cn1
 : -1.3	0.671	2.2	3.7	-10.0	-5.1	.
- Nc1nc(SCC(=O)NCCOCCO)nc2sc3c(c12)CCCC3
 : 0.6	0.646	3.9	-0.9	-14.7	-2.6	.
- O=C(CN1C(=O)c2cccnc2Oc2ccc(Cl)cc21)Nc1ccccc1F
 : 0.5	0.774	3.9	10.2	4.4	0.7	.
- Nc1ccc(C(=O)OCc2nc3c(ccc4ccccc43)[nH]2)cc1
 : -0.3	0.697	1.1	-2.1	2.4	5.8	8.1%
- O=C(NCCCn1ccnc1)c1ccc(Cl)s1
 : 0.2	0.709	5.6	-0.3	12.0	4.3	-0.2%
- Cc1ccc2nc(C)cc(N/N=C/c3cccnc3)c2c1
 : -0.4	.	6.1	0.4	-0.1	.	2.9%
- O=S1(=O)CCN2C=C(Cl)C=C(Cl)C2=N1
 : -0.9	0.708	-4.5	0.0	8.7	i	.
- S=C(Nc1ccc2nc(-c3ccccn3)c(-c3ccccn3)nc2c1)N1CCCCC1
 : .	0.755	.	-11.1	9.2	-29.6	14.5%
- Cn1cc(CCNC(=O)c2ccc3nc(Cc4ccccc4F)oc3c2)cn1
 : -0.9	0.656	1.0	-2.8	-4.3	2.1	0.9%
- CCOc1ccc(S(=O)(=O)Nc2cc(NS(=O)(=O)c3ccc(OCC)cc3)cc(C(=O)O)c2)cc1
 : 1.1	0.622	-7.9	-9.1	16.2	2.6	.
- CC1=NN(Cc2cc(C(C)(C)C)c(O)c(C(C)(C)C)c2)C(=O)C1
 : 1.9	0.694	-1.2	7.2	-6.1	5.3	.
- Cc1ccc(C)c(S(=O)(=O)NCc2ccc(C(=O)N3CCCCC3C)cc2)c1 (stereo unspecified)
 : 0.1	0.687	2.6	7.0	0.9	1.1	1.4%
- CCN1CCN(C(=O)CCc2nnc3ccc(N4CCC5(CC4)OCCO5)nn23)CC1
 : -1.0	0.729	1.3	-0.8	-0.8	1.0	.
- Nc1nc(SCC(=O)Nc2ccccc2Oc2ccccc2)n[nH]1
 : -1.1	0.668	-3.8	-1.4	2.0	4.2	.
- O=C(NCCN1CCOCC1)c1c[nH]c2ccc(S(=O)(=O)N3CCOCC3)cc2c1=O
 : -1.7	0.673	-0.3	-2.0	1.8	-16.5	12.1%
- O=C(/C=C/c1ccc(Cl)cc1)N1CCN(Cc2ccccc2)CC1
 : -1.0	0.614	5.4	2.1	-10.7	1.7	6.8%
- O=[N+]([O-])c1cccc(CN2CCN(c3ncccn3)CC2)c1
 : 0.6	0.661	1.7	3.8	16.4	3.9	-1.9%
- COc1cccc(CC2(CO)CCCN(Cc3nc(-c4cccs4)oc3C)C2)c1 (stereo unspecified)
 : 0.3	0.656	1.7	2.4	-14.2	1.8	1.7%

High-throughput results as filed in PubChem.
